Source: PubChem BioAssay
Calb biofilm kill: clotrimazole potentiators killing C. albicans biofilm, primary screen, 4-compound mixtures; C. albicans biofilm persisters + clotrimazole, fluorescence viability; primary screen in compound mixtures of four per well; inhibition, % at 7.6 µM; 0.02% of 120,000 active; AID 1242, 2008;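 active means inhibition above 30.3% in the primary screen of four-compound pools, then above 30% when the compound was retested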;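 further: compounds exposed to preformed 24 h biofilms for 48 h; the number belongs to the whole pool; some results filed as inactive read as strong as hits; inactives centre near 12; 0% = biofilm with clotrimazole alone and 100% = kill control; retested singly at about 60 µM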
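Test system: C. albicans biofilms. Buffer or medium: RPMI/MOPS medium, pH 7.0. Timing: 48 h compound exposure at 37 °C. Technique: Alamar Blue fluorescence. Evaluation: percent inhibition of biofilm viability.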
* = called active by the depositor. These rows are one share of the data. The share of hits here may be higher or lower than overall.

canonical_smiles	Calb biofilm kill
Cc1nc2ccc(NC(=O)c3cncc(Br)c3)cc2s1	17
COc1ccc(C(O)c2nccc3cc(OC)c(OC)cc23)cc1OC (stereo not given)	10
COc1cc2c(cc1OC)C(c1ccc(Cl)cc1)=NCC2	25
CC(C)CC(=O)NNC(=O)c1ccc(Cl)cc1	29
O=C1C2C3C=CC(C3)C2C(=O)N1c1ccccc1OS(=O)(=O)c1ccccc1 (stereo not given)	10
CCOC(=O)C1(C)NC(c2cccs2)C2C(=O)N(c3ccccc3)C(=O)C21 (stereo not given)	14
CCC(c1nnnn1Cc1ccc2c(c1)OCO2)N1CCN(CC)CC1 (stereo not given)	9
COc1ccc(N2CC(C(=O)N/N=C/c3cc([N+](=O)[O-])ccc3O)CC2=O)cc1 (stereo not given)	8
COc1ccc(NC(=O)C2CC(=O)OC2c2ccccc2)cc1 (stereo not given)	8
CC(C)=CCCC(C)CN1CCC(N2CCC(C(=O)NC(C)C)CC2)CC1 (stereo not given)	15
CCOC(=O)c1cc(CC)sc1NC(=O)C1CC(=O)NN1Cc1ccccc1 (stereo not given)	13
COc1ccccc1NC(=O)Cc1csc(NC(=O)c2ccccc2)n1	15
COc1ccc(CC(=O)Nc2cccc(-c3ccc4nnc(C)n4n3)c2)cc1OC	15
COCCCN(C(=S)NC(=O)c1ccc(C(C)(C)C)cc1)c1c(N)n(Cc2ccccc2)c(=O)[nH]c1=O	10
O=C(CCCOc1ccc(Cl)cc1Cl)NCc1ccncc1	17
Cc1ccc(NC(=O)c2ccccn2)cc1S(=O)(=O)N1CCOCC1	7
CC1CCCCN1S(=O)(=O)c1ccc(C(=O)Nc2ccccc2-c2nc3ccccc3s2)cc1 (stereo not given)	14
CC(C)(C)OC(=O)C(C)(C)Sc1nnc(N)s1	14
CCc1ccc(NC(=O)CN2C(=O)CSC2=O)cc1	8
CCOC(=O)c1c(C)[n+]([O-])c2ccc3c(non3O)c12	14

2 neighbouring records out of the list so far:
canonical_smiles	Calb biofilm kill
CCOC(=O)c1cc(CC)sc1NC(=O)C1CC(=O)NN1Cc1ccccc1 (stereo not given)	13
COc1ccccc1NC(=O)Cc1csc(NC(=O)c2ccccc2)n1	15

Later entries:
canonical_smiles	Calb biofilm kill
COC(=O)Cc1c(O)ccn(CCc2ccc(OC)c(OC)c2)c1=O	6
N#Cc1ccc(N2Cc3ccccc3/C2=N/C(=O)Nc2ccc(Cl)cc2)cc1	7
CCOc1ccc(NC(=O)c2ccc(NC(=O)c3ccc(CN4CCOCC4)cc3)cc2)cc1	13
CCC(=O)NC(=S)Nc1ccc(N2CCOCC2)cc1	7
COc1ccc(CNC(=O)C2(C)Cc3ccccc3C(=O)O2)cc1 (stereo not given)	7
CCOC(=O)c1ccc(NC(=O)N2CCN(C(=O)c3ccco3)CC2)cc1	-17
COc1ccc(N=C2SC(CC(=O)Nc3ccccc3)C(=O)N2Cc2ccccn2)cc1 (stereo not given)	11
COc1ccc(/C=N/NC(=O)c2cnccn2)cc1O	23
COc1cccc(/C=C(/C(=O)OCC(=O)NC2CCCC(C)C2C)c2ccccc2)c1 (stereo not given)	8
COc1cc(C(=O)NCC(=O)OCn2nnc3ccccc3c2=O)cc(OC)c1OC	10
Cc1ccc(C(=O)CSc2nnc3ccccn23)c(C)c1	-9
CCOC(=O)Cc1csc(SCC(=O)Nc2cc(C)ccc2OC)n1	11
OCCN(Cc1nc(-c2ccc3c(c2)OCO3)no1)Cc1cccs1	8
COC(=O)c1c(NC(=O)c2c(Cl)cnn2C)sc(C)c1C	10
CC1(C)CC(NC(=O)COc2ccccc2Cl)CC(C)(C)N1	20
Cc1cc(C)nc(NS(=O)(=O)c2ccc(NC(=O)c3cc(-c4ccccc4)nc4ccccc34)cc2)n1	16
Cn1cc(/C=C2\SC(=O)N(c3ccccc3)C2=O)c2ccccc21	26
COc1ccc(C(=O)NCC(=O)N2CCc3ccccc3C2)cc1	16
CCCCCCc1c(O)nc(SCCN(C)C)[nH]c1=O	22
COc1cc(/C=C\C(=O)NCc2ccc3[nH]c(C)cc3c2)cc(OC)c1OC	8
CCOc1cccc(C2NC(=S)NC(C)=C2C(=O)Nc2ccccc2)c1 (stereo not given)	12
COc1cc(/C=N/NC(=O)c2ccc(CSc3nc4ccccc4[nH]3)cc2)cc(OC)c1OC	5
S=C(NCC1COc2ccccc2O1)Nc1ccccc1 (stereo not given)	5
Nc1nnc(-c2ccc(Cl)c([N+](=O)[O-])c2)s1	19
CC(NCC(O)COCc1ccc(Cl)cc1)c1ccccc1 (stereo not given)	27
O=C(Nc1ccc(F)cc1)c1ccccc1S(=O)(=O)c1ccccc1[N+](=O)[O-]	10
COc1cc2c(c(OC)c1OC)-c1c(cc(OC)c(OC)c1OC)C[C@](C)(O)[C@@H](C)C2	16
CCOC(=O)CSc1nc2ccsc2c(=O)[nH]1	13
O=C(CSc1nnc2ccccn12)Nc1cccc(S(=O)(=O)N2CCOCC2)c1	3
COc1ccc(NC2=CC(=S)NC(C)(C)C2)cc1	22
COCCCNC(=S)N/N=C/c1ccc(N(C)C)cc1Cl	13
COc1cc2[nH]c(=S)n(Cc3cccs3)c(=O)c2cc1OC	12
COc1ccc(C2/C=C\CN(C(=O)OCc3ccccc3)CC(=O)N2Cc2ccc(F)cc2)cc1 (stereo not given)	7
CC(C)CC(=O)NC(=S)Nc1ccc(N2CCCC2)c(Cl)c1	-1
CCCCOP(=O)(OCCCC)C(O)c1ccc(N(C)C)cc1 (stereo not given)	25
Cc1snnc1C(=O)NC(=S)Nc1ccccc1	27
COCCn1c(C)cc(C(=O)COc2cccnc2[N+](=O)[O-])c1C	12
COc1cccc(Sc2ccccc2/C=N/NC(N)=O)c1	24
CCc1cccc(CC)c1NC(=S)N1CCn2cccc2C1c1cccnc1 (stereo not given)	17
CC(=O)N1CCc2ccc(S(=O)(=O)N3CCc4ccccc43)cc21	14
O=C(C1CCN(Cc2nc(Cc3cccc(F)c3)no2)CC1)N1CCOCC1	18
Cc1ccc(S(=O)(=O)N2CCCOC2CNC(=O)C(=O)NCc2ccco2)cc1 (stereo not given)	8
Cc1cc(=O)[nH]c(N/N=C/c2ccc([N+](=O)[O-])cc2)n1	26
N[C@@H](CO)c1nnc([C@H](Cc2ccc(O)cc2)NC(=O)C2CCNCC2)o1	13
Cc1ccc(CN2CCSc3ccc(C(=O)NCc4cccnc4)cc32)cc1	3
O=C(CCC(=O)OCc1cccc([N+](=O)[O-])c1)Nc1ccc(F)cc1	16
COc1c(C)cc(C(=O)C2CCCN(C(=O)CCc3scnc3C)C2)cc1C (stereo not given)	13
COc1ccc(-c2cc(=O)c(C(=O)c3ccc(C)cc3)n[nH]2)cc1	13
Cc1cc(C)cc(NC(=O)COc2ccc(C(=S)N3CCOCC3)cc2)c1	15
O=C(CNC(=O)c1ccccc1F)Nc1ccccc1C(F)(F)F	6

(cont.)
canonical_smiles	Calb biofilm kill
O=C(OCC(=O)N1CCc2ccccc21)c1nc(Cl)ccc1Cl	17
O=C(Nc1cccc(-c2nnco2)c1)c1cccs1	12
CCOC(=O)C1(CCOc2ccccc2)CCN(Cc2cnc(C)[nH]2)CC1	14
CC(O)CCC(=O)NNC1=CC(=O)CC(C)(C)C1 (stereo not given)	13
COc1ccc(N2C(=O)CC(NCc3ccc(F)cc3)C2=O)cc1 (stereo not given)	15
Oc1ccc[n+](CCCCC[n+]2cccc(O)c2)c1	15
O=C(NCc1ccccc1F)Nc1ccc([N+](=O)[O-])cc1	6
O=C(N/N=C/C=C/c1ccco1)/C(=C/c1ccccc1)NC(=O)c1ccccc1	23
COc1ccc(OCc2cccc(C(=O)Nn3cc([N+](=O)[O-])cn3)c2)cc1	23
COc1ccc2c(c1OC)C(=O)OC2	9

An excerpt of these results, with each value named.
O=C(Nc1ccc(F)cc1)c1ccccc1S(=O)(=O)c1ccccc1[N+](=O)[O-]
- Calb biofilm kill = 10
Cc1nc2ccc(NC(=O)c3cncc(Br)c3)cc2s1
- Calb biofilm kill = 17
Oc1ccc[n+](CCCCC[n+]2cccc(O)c2)c1
- Calb biofilm kill = 15
CCOC(=O)Cc1csc(SCC(=O)Nc2cc(C)ccc2OC)n1
- Calb biofilm kill = 11

More structures:
canonical_smiles	Calb biofilm kill
CC(=O)Nc1ccc(S(=O)(=O)NC2(C(F)(F)F)C(=O)Nc3c2c(=O)[nH]c(=O)n3Cc2ccco2)cc1 (stereo not given)	10
O=C(NCCc1ccccn1)c1ccc(OC(F)F)cc1	14
O=C(COC(=O)/C=C/c1ccc(OC(F)F)cc1)NCc1cccs1	19
O=C(NC(=S)Nc1ccc(S(=O)(=O)Nc2ncccn2)cc1)c1cccc(Br)c1	20
CC1CN(C(=O)Nc2cccc(Cl)c2)C2(CCCCCC2)O1 (stereo not given)	11
S=C(Sc1ccc(Cl)cc1)Sc1ccc(Cl)cc1	7
CC1Cc2ccccc2N1CC(=O)NCc1ccccc1Cl (stereo not given)	16
O=C(O)C1CCCCC1C(=O)Nc1ccccc1C(=O)N1CCN(c2ccc(F)cc2)CC1 (stereo not given)	15
CC(C)[C@H](CN(N=O)[C@@H](Cc1ccccc1)CN(C)N=O)N(CCc1ccccc1)N=O	19
CCCS(=O)(=O)Nc1ccc(-c2ccc3nnc(C)n3n2)cc1	15

Among those listed so far, 2 contain a tert-butyl group:
canonical_smiles	Calb biofilm kill
COCCCN(C(=S)NC(=O)c1ccc(C(C)(C)C)cc1)c1c(N)n(Cc2ccccc2)c(=O)[nH]c1=O	10
CC(C)(C)OC(=O)C(C)(C)Sc1nnc(N)s1	14

Going on with the list:
canonical_smiles	Calb biofilm kill
Cc1cc(OCCn2cnc3ccccc3c2=O)cc(C(C)C)c1	0
CC(NS(=O)(=O)c1ccc(Br)cc1)C(=O)NCc1ccc2c(c1)OCO2 (stereo not given)	6
COC(=O)c1sc2nc(CSc3ccc(Br)cc3)[nH]c(=O)c2c1C	1
CC(CN1CCOCC1)OC(=O)c1ccccc1 (stereo not given)	10
COc1ccc(/C=N/NC(=O)c2ccco2)cc1OCc1ccccc1	15
O=C(Cn1c2ccccc2c(=O)c2cc([N+](=O)[O-])ccc21)Nc1ccccc1Cl	19
O=C(Nc1ccno1)Nc1ccc(Cl)cc1Cl	10
CC(C)(C)C(=O)Nc1ccc(-c2csnn2)cc1	11
O=C(CSc1nnc(CNc2ccc(F)cc2)n1Cc1ccccc1)NCc1ccccc1	9
CCCC(=O)OCCNc1cc(Sc2nccn2C)c2nonc2c1[N+](=O)[O-]	9
COc1cc2c(cc1OC)CN(C(=O)c1ccc(S(=O)(=O)N3CCCCCC3)cc1)CC2	4
CC(=O)NC(Cc1cccc(F)c1)C(=O)NC1CCN(c2ncccc2[N+](=O)[O-])CC1 (stereo not given)	-3
COc1ccccc1-c1c(NC(=O)c2ccco2)n(C)c2ccccc2c1=O	8
CC(=O)c1cccc(NC(=O)CSc2ccc(-c3ccc4c(c3)OCO4)nn2)c1	9
CCC1=C(OC(=O)N(CC)CC)N2C(=O)OC(=NCCc3c[nH]c4ccccc34)[C@]2(C)[C@H]2C1=CC[C@H]1C(=O)N(CC(=O)OC)C(=O)[C@H]12	11
Cc1cccc(Nc2c([N+](=O)[O-])c(=O)n(C)c3ccccc23)c1	23
C=CCN(CC=C)C(=S)NC(=O)c1ccc([N+](=O)[O-])cc1	17
Cc1cc(C(=O)CN2C(=O)NC3(CCC(C)CC3)C2=O)c(C)n1C (stereo not given)	4
Cc1ccc(NC(=O)c2cc(=O)c3ccccc3o2)c(C)c1	21
O=C(COc1ccc(Cl)cc1)NCc1nnc(SCC(=O)N2CCCCCC2)o1	11
COc1ccc2c(CC(=O)Nc3ccccc3OC)coc2c1	11
O=C(Nc1ccc(N2C(=O)C3CCCCC3C2=O)cc1Cl)c1cccs1 (stereo not given)	5
COc1ccc(-c2onc(C)c2-c2cnn(-c3ccccc3)c2)c(O)c1	-6
COC(=O)c1ccccc1NC(=O)Nc1cccs1	-5
O=C1OC(OC(=O)c2ccccc2Br)C(N2CCOCC2)=C1Cl (stereo not given)	16
O=C(CCCSc1nc2ccccc2[nH]1)NCc1ccc(Cl)cc1	4
N#Cc1ccsc1NC(=O)COC(=O)c1ccc2ccccc2c1	2
CC(=O)c1ccc(Sc2nnc(C)s2)c([N+](=O)[O-])c1	10
O=[N+]([O-])/C(C(Cl)=C(Cl)Cl)=C(/NC1CC1)Sc1ccccc1	10
Cc1ccc(S(=O)(=O)N(C)C)cc1NC(=O)Nc1c(-c2ccccc2)noc1C	26
O=C1/C(=C/c2ccc(Cl)cc2)NC(=S)N1Cc1cccnc1	-3
O=C(/C=C/c1ccc(S(=O)(=O)N2CCOCC2)cc1)NCc1ccc(Cl)cc1	10
Cc1ccc(C(=O)Nc2nnc(-c3ccco3)o2)cc1	19
CC(=O)Nc1ccc(/C(C)=N/Nc2nc(Nc3cccc4ccccc34)nc(N3CCOCC3)n2)cc1	14
Oc1ccc(-c2nc3ccc4ccccc4c3c3c2CCC3)cc1O	17
CCCCOc1ccc(-c2cc(C(F)(F)F)c(C#N)c(SCC(=O)O)n2)cc1	23
Fc1ccc(C(c2ccc(F)cc2)N2CCN(C/C=C/c3ccccc3)CC2)cc1	3
CCOC(=O)CC1CCCCN1Cc1nc(-c2ccc(F)c(OC)c2)oc1C (stereo not given)	12
C=CCc1cc(OC)ccc1OCCN(C)Cc1ccccc1	10
